# D2 agonist = Beta-Arrestin HTS for Positive Allosteric Modulators of the Human D2 Dopamine Receptor: Agonists. DiscoveRx PathHunter D2 beta-arrestin, luminescence, 90 min; 100% = 57 uM dopamine signal. activation, % (test concentration not listed). hit rate 0.084% among 360,000. AID 624465, 2012; in the data active = activation above about 40%; inconclusive = about 15% to 40%; inactive = below about 15%; note: compound concentration not given in the record; the text of the record calls up to 30% inactive
#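 DiscoveRx PathHunter D2 beta-arrestin cells (2,100/well) attached overnight, then compound-stimulated 90 min at 37 C in HBSS/10 mM HEPES/0.1% Tween-20 buffer; beta-galactosidase complementation read by luminescence after 1 h at ambient temperature. Dopamine 57 uM final (EC100) as control.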
# TRPV1 PAM = HTS Assay for Compounds that Act as Potentiators of the Vanilloid Receptor 1; TRPV1-expressing cells, Fluo-8 calcium influx, capsaicin EC20 potentiation; host cell line not named in the record; control for the full effect not named in the record; potentiation, % at 8.33 µM; Transient receptor potential cation channel subfamily V member 1 (Homo sapiens), Q8NER1; AID 540277, 2011; hit rate 0.02% among 320,000; active means potentiation above 80%; inconclusive means 30% to 80%; inactive means below 30%; note: 0% is about no effect
#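 Cells expressing TRPV1 were dye-loaded with Fluo-8 and read kinetically: 10 s baseline, 3 min after compound (agonist portion), then 2 min after EC20 capsaicin (allosteric enhancer portion). Calcium-bound dye fluorescence at 480/520 nm.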
# CtBP-E1A inh = qHTS Assay for Inhibitors of the CtBP/E1A Interaction. CtBP / adenovirus E1A interaction (AlphaScreen). AlphaScreen GST-E1A/His-CtBP binding, 1536-well; active compounds read low; control for the full effect not named in the record. activity change, % (test concentration not listed). hit rate 0.49% among 340,000; in the data active means activity change below about -65%; inconclusive means about -30% to -65%; inactive means above about -30%; note: % is set by controls: 0 for no effect and ±100 for the full control effect
#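 In 5 uL wells, 23 nL compound meets equimolar GST-E1A and His-CtBP (5X stock 125 nM each) for 2 h, 37 °C. Beads (5X, 50 ug/mL) then 1 h, 37 °C, dark.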
# D2 PAM = Beta-Arrestin HTS for Positive Allosteric Modulators of the Human D2 Dopamine Receptor: Potentiators. potentiation, % (concentration not given with the values). DiscoveRx D2 beta-arrestin cells, luminescence, 90 min; 100% = 57 uM dopamine signal. AID 624464, 2012. D(2) dopamine receptor (Homo sapiens), P14416. hit rate 0.23% among 360,000; active = potentiation of 50% or more; inconclusive = 30% to 50%; inactive = 30% or less;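 note: compound concentration not given in the record; tested on top of an EC20 dose of dopamine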
#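 D2 cells co-treated with compound plus 50 nM dopamine (EC20) for 90 min at 37 deg C to detect potentiation. Beta-arrestin recruitment was read as enzyme-fragment luminescence after 1 h at ambient temperature. Full response was set by 57 uM dopamine.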
# Sfp PPTase inh = qHTS Assay for Inhibitors of Bacillus subtilis Sfp phosphopantetheinyl transferase (PPTase); Biochemical Sfp PPTase activity, qHTS; Potency, µM, without a hit: max response, negative = inhibition, actives largely listed as inhibitors; hit rate 3.5% among 310,000; AID 1490, 2009; active = well fitted inhibition curve with a large enough effect; inconclusive = small, poorly fitted or top-dose-only effect, or another doubt; inactive = no such curve, though single readings can be large or run the other way;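 note: the enzyme is Sfp with the accession as filed and its product quenches rhodamine fluorescence; potency is the fitted concentration of half-maximal effect; 0% = enzyme reaction without inhibitor and -100% = no enzyme wells; top concentration of the series not given in the record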
#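 After 15 min at room temperature with compound, 15 nM Sfp received 5 uM rhodamine-CoA plus 12.5 uM BHQ-2-ybbR (50 mM Hepes pH 7.6, 10 mM MgCl2). Rate came from the fluorescence difference over 30 min, ex 525/em 598 nm.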
# Six1-Eya2 blk = qHTS Assay for Inhibitors of the Six1/Eya2 Interaction | Homeobox protein SIX1 (Homo sapiens) + Protein phosphatase EYA2 (Homo sapiens), … | AlphaScreen GST-Six1/His-Eya2 binding, biochemical; active compounds read low; control for the full effect not named in the record | activity change, % (concentration not given with the values) | hit rate 0.56% among 360,000 | AID 651725, 2012; in the data active = activity change below about -65%; inconclusive = about -30% to -65%; inactive = above about -30%; note: % is set by controls: 0 for no effect and ±100 for the full control effect
# Target sequence (O00167 whole entry, looked up): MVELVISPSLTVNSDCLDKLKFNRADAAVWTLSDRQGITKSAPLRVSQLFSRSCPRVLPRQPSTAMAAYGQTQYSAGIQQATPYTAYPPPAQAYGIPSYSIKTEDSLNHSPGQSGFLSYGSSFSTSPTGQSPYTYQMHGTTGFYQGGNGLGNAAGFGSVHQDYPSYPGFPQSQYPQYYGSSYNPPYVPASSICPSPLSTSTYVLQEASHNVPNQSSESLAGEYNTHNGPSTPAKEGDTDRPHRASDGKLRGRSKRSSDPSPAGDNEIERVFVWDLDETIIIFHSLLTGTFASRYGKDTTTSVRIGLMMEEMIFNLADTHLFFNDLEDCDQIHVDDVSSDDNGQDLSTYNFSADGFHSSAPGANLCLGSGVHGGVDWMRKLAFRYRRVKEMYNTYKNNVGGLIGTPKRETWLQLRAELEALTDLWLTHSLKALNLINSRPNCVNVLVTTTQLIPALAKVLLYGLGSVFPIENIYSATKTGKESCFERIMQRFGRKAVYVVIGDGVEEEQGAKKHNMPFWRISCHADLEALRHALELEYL
# Target sequence (Q15475 whole entry, looked up): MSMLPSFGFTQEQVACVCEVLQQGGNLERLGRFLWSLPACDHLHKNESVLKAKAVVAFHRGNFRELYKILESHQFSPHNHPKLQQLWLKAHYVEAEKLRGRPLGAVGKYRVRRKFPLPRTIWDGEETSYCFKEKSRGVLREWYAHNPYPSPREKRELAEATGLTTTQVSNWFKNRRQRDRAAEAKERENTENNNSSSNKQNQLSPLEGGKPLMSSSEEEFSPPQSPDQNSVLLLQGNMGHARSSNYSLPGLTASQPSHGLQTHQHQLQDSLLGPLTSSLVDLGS
#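 GST-Six1 + His-Eya2 (5X stock: 250/500 nM); Tris pH 8.0, 300 mM NaCl, 0.05% BSA, 0.02% Tween 20; GSH donor/Ni acceptor beads; 1 h 37 °C dark; AlphaScreen readout.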
# PINK1 expr mod = A Quantitative High throughput Screen to Identify Chemical Modulators of PINK1 Expression; AID 624263, 2012; Potency, µM (top dose mostly 76.6 µM), for the others: top-dose activation (PINK1 increase), hits mostly activators; PINK1 immunofluorescence, high-content cytometry, 24 h; hit rate 0.2% among 410,000; active = well fitted activation curve with a large enough effect; inconclusive = small, poorly fitted or top-dose-only effect; inactive = flat fitted curve, though single readings scatter; cell line not stated here;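 note: potency is the fitted concentration of half-maximal effect; % of control where 0% means no effect; nearly all actives have a fitted effect of over 65% in size; a mitochondrial uncoupler was the plate control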
#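 Measures PINK1 amount and localization on or inside mitochondria by immunofluorescence. Stable cells get compounds at 5 concentrations for 24 hours before fixation and staining; CCCP controls included.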
# Numbers without * were called inactive; u = inconclusive; x = not tested or not shown; & = joins results of further samples; [ ] = dose if it differs, or a comment.
SMILES,D2 agonist,TRPV1 PAM,CtBP-E1A inh,D2 PAM,Sfp PPTase inh,Six1-Eya2 blk,PINK1 expr mod
CC1CN(C(=O)COC(=O)c2ccc(Cl)nc2)CC(C)O1 (centres undefined),-0.9,4,0,5,1%,7,0.9%
CCOc1ccc(C(=O)NCCn2cc(SCC(=O)Nc3cc(C)on3)c3ccccc32)cc1,2.4,19,-1,-2,u,-3,1.7%
CC1(C)CC(CCNC(=O)CCl)(c2ccccc2)CCO1 (centres undefined),-1.7,-1,-10,-9,7%,-4,-0.9%
O=[N+]([O-])c1cccc(S(=O)(=O)c2ccc(N3CCCCC3)c([N+](=O)[O-])c2)c1,7.5,-6,u,12,8%,u,-2.0%
Cn1c(CNC(=O)OC(C)(C)C)nnc1SCC(=O)N1CCOCC1,-3.5,-3,6,-1,9%,5,0.7%
Cn1c(SCC(=O)Nc2sccc2C(N)=O)nnc1-c1ccncc1,7.0,u,1,-3,22%,-2,-0.6%
COc1ccc(-c2csc(NC(=S)NC(=O)/C=C/c3ccc(C(C)C)cc3)n2)cc1OC,0.0,6,3,11,18%,-3,2.3%
CCC(C)NC(=O)c1ccc(N2CCC3(CC2)OCCO3)c([N+](=O)[O-])c1 (centres undefined),-4.1,9,7,-21,9%,5,3.5%
N#C/C(Cn1c[n+](NC(=O)Nc2ccccc2)cn1)=N/O,-1.9,10,-16,-1,u,3,-4.7%
CC1CN(CC(O)COc2ccccc2C(C)(C)C)CC(C)O1 (centres undefined),-0.6,-8,0,-23,11%,2,0.3%
O=C(NNS(=O)(=O)c1ccccc1C(F)(F)F)c1cccc(S(=O)(=O)Nc2ccccc2Cl)c1,7.1,3,0,8,31%[activator],-1,0.4%
COc1ccc(NC(=O)c2cn(C)c(=O)c3cc(OC)c(OC)cc23)cc1OC,2.9,24,-17,-2,10%,-13,0.2%
O=C(NCCCn1ccnc1)c1nc(Cn2ccc([N+](=O)[O-])n2)no1,-3.5,-14,4,-1,16%,1,0.3%
COc1ccc(OC)c(NC(=O)c2ccc(NS(C)(=O)=O)cc2)c1,-1.0,-18,-4,12,22%,-3,-1.8%[38.3 µM]
N/C(COc1ncn(-c2ccccc2)n1)=N\S(=O)(=O)c1ccccc1,0.8,-6,-12,6,12%,-1,2.3%
CCN1c2ccccc2NC2N=C(OC)C(c3ccccc3)C21 (centres undefined),-2.1,6,-17,6,3%,-12,-5.1%[38.3 µM]
COc1cccc(C2C(C(=O)c3ccc(C)o3)=C(O)C(=O)N2CCN2CCOCC2)c1 (centres undefined),-9.0,2,0,-7,2%,21,2.3%
NC(=O)c1nn(-c2ccccc2)nc1NC(=O)CN1CCCCC1,-3.3,-13,-8,-12,-1%,-6,4.2%
Cc1cc(C)n(CCCNC(=O)Cn2nnnc2CN2C[C@@H](C)O[C@@H](C)C2)n1,0.3,7,x,-2,u,8,1.2%
CC1Cc2ccccc2N1C(=O)c1ccc2c(c1)OCO2 (centres undefined),-4.6,x,8,-16,x,6,0.6%

# Just CtBP-E1A inh (two entries from above):
SMILES | CtBP-E1A inh
N#C/C(Cn1c[n+](NC(=O)Nc2ccccc2)cn1)=N/O | -16
Cn1c(SCC(=O)Nc2sccc2C(N)=O)nnc1-c1ccncc1 | 1

# 7 entries from above, tab-delimited:
Compound	D2 agonist	TRPV1 PAM	CtBP-E1A inh	D2 PAM	Sfp PPTase inh	Six1-Eya2 blk	PINK1 expr mod
N#C/C(Cn1c[n+](NC(=O)Nc2ccccc2)cn1)=N/O	-1.9	10	-16	-1	u	3	-4.7%
CC1CN(CC(O)COc2ccccc2C(C)(C)C)CC(C)O1 (centres undefined)	-0.6	-8	0	-23	11%	2	0.3%
O=C(NNS(=O)(=O)c1ccccc1C(F)(F)F)c1cccc(S(=O)(=O)Nc2ccccc2Cl)c1	7.1	3	0	8	31%[activator]	-1	0.4%
COc1ccc(NC(=O)c2cn(C)c(=O)c3cc(OC)c(OC)cc23)cc1OC	2.9	24	-17	-2	10%	-13	0.2%
O=C(NCCCn1ccnc1)c1nc(Cn2ccc([N+](=O)[O-])n2)no1	-3.5	-14	4	-1	16%	1	0.3%
COc1ccc(OC)c(NC(=O)c2ccc(NS(C)(=O)=O)cc2)c1	-1.0	-18	-4	12	22%	-3	-1.8%[38.3 µM]
N/C(COc1ncn(-c2ccccc2)n1)=N\S(=O)(=O)c1ccccc1	0.8	-6	-12	6	12%	-1	2.3%

# The list continues:
SMILES,D2 agonist,TRPV1 PAM,CtBP-E1A inh,D2 PAM,Sfp PPTase inh,Six1-Eya2 blk,PINK1 expr mod
COc1ccc2c(c1)-c1nc(/N=C/c3cccc(OC)c3O)sc1CC2,1.2,13,5,-11,-1%,-10,-1.1%
CCNC(=O)c1ccc(NS(=O)(=O)c2ccc3[nH]c(=O)[nH]c3c2)cc1,4.8,-3,10,6,22%,1,0.4%
Cc1cccc(N2CCN(C(=O)c3cc(COc4ccc(F)c(F)c4)on3)CC2)n1,3.7,-10,-2,-4,2%,-5,0.7%
CCN(CC(=O)NCc1cccs1)S(=O)(=O)c1cc(NC(C)=O)ccc1OC,0.5,9,-10,0,x,-17,0.7%
NC(=O)c1nsc(C(=O)N(c2ccccc2F)C(C(=O)NCc2ccc(F)cc2)c2ccc(O)cc2)c1N (centres undefined),u,6,7,u,13%,7,-1.5%
Cc1ccc(C)c(N2CCN(CC3CCCCC3)CC2)c1,3.2,-16,13,-20,-1%,0,14%
CCC(C)N1C(=O)CCC1C(=O)NCc1ccc2c(c1)OCO2 (centres undefined),-5.3,x,5,-8,-4%,5,2.4%
FC(F)(F)c1ccccc1Cc1c(-c2ccccc2)nc2ccc(Cl)cn12,-3.4,x,-10,1,x,5,7.0%
COc1ccc(NC(=O)CN2CCC(C(=O)c3ccc(F)cc3)CC2)c(OC)c1,7.1,6,0,-16,4%,-3,-1.8%
COc1ccc(/C=C/C(=O)Nc2cccc(N3CCOCC3)c2)cc1OC,2.8,17,-5,24,-8%,-5,-1.3%
O=C(CCc1nc2ccccc2c(=O)[nH]1)Nc1cc(Cl)ccc1N1CCCC1,-3.0,-2,27,-13,x,15,15%
Cc1ccc(S(=O)(=O)NC(c2ccccc2)C(C)C(=O)n2nc(C)cc2C)cc1 (centres undefined),-1.8,10,-2,-1,13%,11,0.2%
Cn1c(=O)c([N+](=O)[O-])c(NCCCn2ccnc2)c2ccccc21,-1.4,-5,-14,-12,11%,-18,-0.8%
COc1cc(C(=O)Nc2cccc(-c3nnc(-c4ccco4)o3)c2)ccc1OC(C)=O,u,14,u,8,13%,-86*,1.7%
CCn1c(=O)c2ccccc2n(CC(=O)NCCC2=CCCCC2)c1=O,-5.6,0,0,-8,10%,-17,7.6%
Nc1c(Br)cc(Br)cc1CNC1CCC(O)CC1 (centres undefined),-4.0&-4.2,-13&-1,-2&3,-3&-10,16%&8%&21%&-13%&8%,-11&2,2.1%&0.3%
CCOc1ccc(N2C(=O)C3C(C2=O)C3(c2ccccc2)c2ccccc2)cc1 (centres undefined),-2.5,-1,10,-18,3%,-9,-0.3%
CC(C)CNC(=O)C1CCCN(S(=O)(=O)c2ccc(-n3cnnn3)cc2)C1 (centres undefined),0.3,17,-1,-4,5%,6,-0.9%
O=C(NCc1ccco1)C(c1ccco1)N(Cc1cccs1)C(=O)Cn1nnc2ccccc21 (centres undefined),-2.0,-9,-2,-19,-21%,-2,-0.2%
CC1CCc2sc(C(=O)N/N=C/c3ccc(O)cc3)cc2C1 (centres undefined),-0.9,-2,-12,-21,2%,-20,2.0%
CC1(C)CC(CCN)(Cc2ccccc2Cl)CCO1 (centres undefined),-1.1,0,3,-6,24%,8,-0.1%
Cn1c(N)c(C(=O)COC(=O)c2cc(C3CC3)nc3ccccc23)c(=O)n(Cc2ccccc2)c1=O,0.5,22,-8,-6,21%&2%,-7,0.7%
CC1CC(C)CN(S(=O)(=O)c2ccc(NC(=O)C3CC(=O)N(Cc4ccccc4)C3)cc2)C1 (centres undefined),4.1,-10,-6,-7,0%,4,2.2%
CCOc1nc(-c2ccccc2Cl)nc2ccccc12,-5.4,-6,25,-1,6%,-4,13%
CC(OC(=O)C1CC1)C(=O)Nc1ccc([N+](=O)[O-])cc1Cl (centres undefined),-6.8,11,-9,-5,18%,14,-0.8%
O=C(CSc1nnnn1-c1ccccc1)Nc1ccccc1,-1.6,u,x,-26,7%,4,5.1%
CCOC(=O)C1=C(C)NC(=O)NC1c1ccco1 (centres undefined),0.0,-1,2,-3,-5%,-1,-1.7%[38.3 µM]
CCCCSc1nnc2n(CCc3ccccc3)c(=O)c3c4c(sc3n12)COC(C)(C)C4,0.1,-16,-2,-4,-1%,7,1.1%
CC1CCC(NC(=O)CCNS(=O)(=O)c2ccc3c(c2)CCC(=O)N3)CC1 (centres undefined),7.0,3,-10,-11,3%,-9,0.8%
COc1ccc(CCNc2ccncn2)cc1,0.7,25,3,-1,2%,30,-2.5%
Cc1cccc(CC(=O)N2CCCC2)c1,-1.8,-2,5,-3,8%,4,-0.3%
Cc1ccccc1NC(=O)N1c2ccccc2CC1C (centres undefined),-4.0,7,1,-7,9%,6,2.0%

# Entries above that bear a hit mark in Six1-Eya2 blk:
smiles	D2 agonist	CtBP-E1A inh	D2 PAM	Sfp PPTase inh	Six1-Eya2 blk	PINK1 expr mod
COc1cc(C(=O)Nc2cccc(-c3nnc(-c4ccco4)o3)c2)ccc1OC(C)=O	u	u	8	13%	-86*	1.7%

# Screens as filed in PubChem.
